Screening data: PubChem BioAssay, NMMLSC
Bead autofluor: flagged as autofluorescent in microsphere protease counterscreen. actives 3.1% (n = 360,000). fluorescence intensity (concentration not given with the values). compound autofluorescence counterscreen, microsphere flow cytometry; stronger effect = higher value. AID 624483;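 active = at least 3 SD above the mean of all compounds, about 16000 in these data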;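 also: 100 nL of 1 mM stock went into each well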
Numbers without * were called inactive. The list is partial, so the mix of outcomes need not match the whole.

SMILES | Bead autofluor
COCC(=O)N(C)C[C@@H]1Oc2ncc(Br)cc2C(=O)N([C@@H](C)CO)C[C@H]1C | 3011
CC1(C(=O)NS(=O)(=O)c2ccc(C#N)cc2)CCN1C(=O)Cc1ccc(-c2ccccc2)cc1 (configuration not stated) | 3865
Cn1cncc1C#Cc1ccc(N2C(c3ccsc3)=Cc3ccc(F)cc3C2c2c[nH]c3ccccc23)cc1 (configuration not stated) | 5782
CCOC(=O)C1=CCC(c2cccs2)N(S(=O)(=O)c2ccc(C)cc2)C1 (configuration not stated) | 5914
O=C(NCc1ccncc1)c1ccc(-c2ccc(F)c(F)c2)c2ccoc12 | 3707
CCNC(=O)C1CCCN(C(=O)c2ccccc2F)CC1 (configuration not stated) | 3572
Cn1ccc2c(/C=C/c3ccc(F)cc3)cc3c(c21)C1CCC3C1 (configuration not stated) | 4797
Cc1cc(C)n2c(Nc3ccc4c(c3)OCCO4)c(C3CC3)nc2n1 | 5915
COc1cc(C(O)c2nc(-c3cccc4cccnc34)cs2)ccc1F (configuration not stated) | 3715
c1ccc(COc2cccc(-c3cc4nc(NCCN5CCOCC5)ccn4n3)c2)cc1 | 4318
Nc1ccc(S(=O)(=O)Nc2nc(-c3ccccc3)cc(-c3ccccc3O)n2)cc1 | 3969
CC1(Oc2cccnc2Cl)CCN(Cc2ccc(OC(F)(F)F)cc2)C1 (configuration not stated) | 4028
O=C(NCCN1CCC(n2c(=O)[nH]c3ccccc32)CC1)c1ccc(Cl)cc1Cl | 4320
CCCC(=O)N1CCC1(C)C(=O)NS(=O)(=O)c1ccc(OC)cc1 (configuration not stated) | 2881
C[C@]1(O)CCC2C3CC[C@H]4C[C@@H](OC(=O)[C@@H](N)CCCCN)CC[C@]4(C)C3CC[C@@]21C (some centres not stated) | 3969
Cc1ccc(C(O)c2ncc(-c3ccc(Cl)cc3)[nH]2)c(C)c1 (configuration not stated) | 3758
COc1ccc(OC(=O)N(C)C[C@H]2OCc3cn(nn3)CCCC(=O)N([C@H](C)CO)C[C@@H]2C)cc1 | 3036
O=C(NCc1ccco1)c1ccc2nc([C@@H]3O[C@H](CO)[C@H](O)[C@H](O)[C@H]3O)[nH]c2c1 | 3912
FC(F)(F)Oc1ccccc1C(c1nnnn1C1CCCCC1)N1CCN(C/C=C/c2ccccc2)CC1 (configuration not stated) | 4591
Clc1cccc(CNc2ccn3nc(-c4ccccc4Cl)cc3n2)c1 | 2787
CC(=O)c1ccc(Nc2nc(C(N)C(C)C)cs2)cc1 (configuration not stated) | 3836
Nc1ccn([C@@H]2O[C@H](CNC(=O)[C@H]3CCC(=O)N3)[C@@H](O)[C@H]2O)c(=O)n1 | 3696
CC(=O)OCCn1c([N+](=O)[O-])cnc1C=[N+]([O-])C1CCCCC1 | 3868
CC(C)(C)c1ccc(NC(=O)c2cc(C3CCCN(S(=O)(=O)c4cccc5cccnc45)C3)on2)cc1 (configuration not stated) | 3836
CCCCn1nnnc1C(c1ccccc1)N1CCN(c2cc(C)ccc2C)CC1 (configuration not stated) | 5603

Going on with the list:
SMILES | Bead autofluor
C[C@H](CO)N1C[C@H](C)[C@@H](CN(C)CC2CCOCC2)Oc2ncc(Br)cc2C1=O | 3538
COc1ccc([C@H]2N[C@]3(CCCN(Cc4ccc(F)cc4)C3=O)[C@H]3C(=O)N(C)C(=O)[C@@H]23)cc1 | 2776
C[C@@H]1CN([C@@H](C)CO)C(=O)CCCn2nncc2CO[C@H]1CN(C)C(=O)Nc1ccc(N2CCCCC2)cc1 | 3827
COc1ccc(C)cc1NC(=O)ON=C1CCCCC1 | 6345
COc1cccc(-c2cnc3c(NC(C)=O)cc(-c4cccc(C(=O)N(C)C)c4)cn23)c1 | 2962
Nc1[nH]c(C(=O)c2ccccc2)c(-c2cccnc2)c1C(=O)NC1CCCCC1 | 6612
COC(=O)[C@]12CCCCC=C1N(Cc1ccco1)C(=O)[C@H](CC(=O)NCc1cccc3ccccc13)C2 | 4166
COC(=O)C1=CCCCC(O)=C1C(=O)OC | 2693
CCCc1nc2c3ccccc3ccn2c1Cc1ccccc1C(F)(F)F | 5310
O=Cc1cccc(OCc2cn(CC(=O)c3ccc(O)cc3)nn2)c1 | 3903
O=C1C2C3CC4C5C3C1C5C1(SCCS1)C42 (configuration not stated) | 5919
O=C1C(=Cc2ccc(Cl)cc2)Cc2ccccc21 | 5978
COc1ccc(CN2C(=O)C(CC(=O)NCCN3CCOCC3)CC(C(=O)N(C)C)=C2C)cc1 (configuration not stated) | 3420
CN1C=CC(C(C(N)=O)c2ccccc2)c2ccccc21 (configuration not stated) | 2971
Cc1nc(-c2cccc(CN(C)C(=O)Oc3ccc([N+](=O)[O-])cc3)c2)no1 | 5913
O=C(Nc1ccc2c(c1)OCCO2)C(CCc1ccccc1)N1CCC(Cc2ccccc2)CC1 (configuration not stated) | 4430
Cn1cc(Cc2ccc(C(=O)N3CCN(Cc4ccccc4)CC3)cn2)c2ccccc21 | 3418
CC(C)N(c1ccccc1)c1ccc(NC(=O)[C@@H]2O[C@H](CO)[C@H](O)[C@H](O)[C@H]2O)cc1 | 3879
CC(NS(=O)(=O)c1cccc(Cl)c1F)[C@H](O)c1ccccc1 (some centres not stated) | 3760
COc1ccc(N(C)S(=O)(=O)c2cccc(C(=O)OCC(=O)Nc3cc(C)ccc3OC)c2)cc1 | 3676
CCN(CC)C(=O)C1=C(C)N(Cc2ccc(F)cc2)C(=O)C(CC(=O)NC2CCCCC2)C1 (configuration not stated) | 2943
Cc1noc(C)c1C(=O)N1CCC1(C)C(=O)NS(=O)(=O)c1ccc(Cl)cc1 (configuration not stated) | 4055
CCNC(=O)C1(C)CCN(C(=O)C(c2ccccc2)c2ccccc2)C1 (configuration not stated) | 3530
CCNC(=O)C1(C)CCN(C(=O)c2cccs2)C1 (configuration not stated) | 3557
COc1ccc(-c2csc(C(C)(O)c3cccc(F)c3)n2)cc1OC (configuration not stated) | 2918

For convenience, 14 of the compounds above:
SMILES | Bead autofluor
C[C@@H]1CN([C@@H](C)CO)C(=O)CCCn2nncc2CO[C@H]1CN(C)C(=O)Nc1ccc(N2CCCCC2)cc1 | 3827
COc1ccc(C)cc1NC(=O)ON=C1CCCCC1 | 6345
COc1cccc(-c2cnc3c(NC(C)=O)cc(-c4cccc(C(=O)N(C)C)c4)cn23)c1 | 2962
Nc1[nH]c(C(=O)c2ccccc2)c(-c2cccnc2)c1C(=O)NC1CCCCC1 | 6612
COC(=O)[C@]12CCCCC=C1N(Cc1ccco1)C(=O)[C@H](CC(=O)NCc1cccc3ccccc13)C2 | 4166
COC(=O)C1=CCCCC(O)=C1C(=O)OC | 2693
CCCc1nc2c3ccccc3ccn2c1Cc1ccccc1C(F)(F)F | 5310
O=Cc1cccc(OCc2cn(CC(=O)c3ccc(O)cc3)nn2)c1 | 3903
O=C1C2C3CC4C5C3C1C5C1(SCCS1)C42 (configuration not stated) | 5919
O=C1C(=Cc2ccc(Cl)cc2)Cc2ccccc21 | 5978
COc1ccc(CN2C(=O)C(CC(=O)NCCN3CCOCC3)CC(C(=O)N(C)C)=C2C)cc1 (configuration not stated) | 3420
CN1C=CC(C(C(N)=O)c2ccccc2)c2ccccc21 (configuration not stated) | 2971
Cc1nc(-c2cccc(CN(C)C(=O)Oc3ccc([N+](=O)[O-])cc3)c2)no1 | 5913
O=C(Nc1ccc2c(c1)OCCO2)C(CCc1ccccc1)N1CCC(Cc2ccccc2)CC1 (configuration not stated) | 4430

(listing goes on)
SMILES | Bead autofluor
COc1ccc(C=O)c(-c2c(CCO)sc3ccccc23)c1 | 4271
COc1ccccc1NC(=O)Nc1nc(C(N)Cc2ccc(Cl)cc2)cs1 (configuration not stated) | 3738
CC(C)COC(=O)N1Cc2ccccc2-n2nncc2C1 | 3813
COc1ccc(NC(=O)c2cc(C3CCCCN3C(=O)c3cc(C(C)(C)C)nn3C)on2)c(C)c1 (configuration not stated) | 2912
O=C(Nc1ccc2ccccc2c1)c1ccccc1Cl | 3555
COc1cccc(C(O)c2nc(/C=C/c3ccc(C(F)(F)F)cc3)cs2)c1 (configuration not stated) | 3531
Cc1ccc(CN2CC(N3CCN(C)CC3)CS2(=O)=O)cc1 (configuration not stated) | 4221
CCn1c(C)cc(C(=O)COC(=O)CNC(=O)c2ccco2)c1C | 4080
O=C(COc1ccc2c(-c3ccccc3)cc(=O)oc2c1)N1C[C@H]2C[C@@H](C1)c1cccc(=O)n1C2 | 5326
CCOC(=O)C1(C)CCN1C(=O)c1c(F)cccc1F (configuration not stated) | 2986
O=C(NCCOc1ccc(F)cc1)C1CCC(=O)N(Cc2ccc(Cl)cc2)C1 (configuration not stated) | 3471
CCOc1ccccc1NC(=O)CCNC(=O)N1CC(=O)Nc2ccccc21 | 3549
CCc1ccc([C@H]2[C@@H]3C(=O)C[C@@H]4C(=O)N(c5ccccc5)C(=O)[C@@H]4[C@@H]3CN2S(=O)(=O)c2ccc(C)cc2)cc1 | 5943
CC(C)(C)c1ccc(CC(=O)N2CCC2(C)C(=O)O)cc1 (configuration not stated) | 3882
Cc1ccc(OC(=O)N(C)C[C@H]2OCc3cnnn3CCCC(=O)N([C@@H](C)CO)C[C@H]2C)cc1 | 3041
CCNC(=O)C1(C)CCCN(C(=O)c2nc3ccccc3s2)C1 (configuration not stated) | 2981
CC1=C(C(=O)N2CCCCCC2)CC(CC(=O)NCc2cccc3ccccc23)C(=O)N1CCC1=CCCCC1 (configuration not stated) | 5531
COc1cc(CN2C[C@@H](CO)O[C@@H](n3cnc4c(NCC(C)C)ncnc43)C2)cc(OC)c1OC | 3697
COc1ccc(OC)c(N2C(=O)c3ccccc3C2c2nnnn2-c2ccc3c(c2)OCCO3)c1 (configuration not stated) | 6505
CC(C)CC(=O)Nc1nnc(SCC(=O)NC2CCCC2)s1 | 3930
CCOC(=O)C1=CCN(S(=O)(=O)c2ccccc2)C1c1ccccc1 (configuration not stated) | 6305
Cc1ccc([C@H]2C[C@H](n3cc(C4CC4)nn3)[C@@H](O)CN2C(=O)C2CCCCC2)cc1 | 3645
CSc1ccccc1NC(=O)C1(C)CCN1C(=O)CCC1CCCC1 (configuration not stated) | 3765
CC(=O)Nc1cccc(NC(=O)c2cccc(Cl)c2)c1 | 3585
O=C(Nc1ccc(F)c(Cl)c1)C1Cc2c(-c3ccc(Cl)cc3)ccnc2O1 (configuration not stated) | 3462

Reprinted from the part before: two compounds; new compounds follow.
SMILES | Bead autofluor
CC(=O)Nc1cccc(NC(=O)c2cccc(Cl)c2)c1 | 3585
O=C(Nc1ccc(F)c(Cl)c1)C1Cc2c(-c3ccc(Cl)cc3)ccnc2O1 (configuration not stated) | 3462
Cc1cc(-c2cc(NC=O)c3ncc(-c4cccc(C(=O)NCCN(C)C)c4)n3c2)cc(C)c1O | 3712
Cc1cc(C)n2c(NCc3ccccc3)c(CCc3ccccc3)nc2n1 | 7162
CCCCC[C@@H](C)N1C[C@@H](COCc2ccccc2)Oc2cc(N3CCC[C@H]3CO)ccc2S1(=O)=O | 5272
CCOC(=O)C1=CCC(c2ccccc2C(F)(F)F)N(S(=O)(=O)c2ccc(C)cc2)C1 (configuration not stated) | 4255
CC(=O)Nc1cc(-c2cccc(C(=O)N(C)C)c2)cn2c(-c3ccc(F)c(Cl)c3)cnc12 | 3535
O=C(Nc1nnc([C@@H]2C[C@H](O)[C@@H](CO)O2)s1)c1c(F)cccc1F | 2921
CC(=O)NC(c1ccccc1)c1nc(-c2cc3ccccc3o2)cs1 (configuration not stated) | 3804
CCCOc1ccc(F)cc1-c1cc(C(=O)NCc2cccc(C(F)(F)F)c2)[nH]n1 | 3762
Cc1ccc2nc(C3CCCCC3)c(Cc3ccsc3)n2c1 | 4625
COc1ccc(NC(=O)C2(C)CCN2Cc2ccc3ccccc3c2)cc1OC (configuration not stated) | 3846
COc1ccc(C2=Nc3ccccc3NC(=O)C2N(CCc2cc(OC)cc(OC)c2)C(C)=O)cc1 (configuration not stated) | 5373
Cc1nc(Br)c(Br)n1Cc1ccccc1 | 2808
COc1cccc(CNc2nc3cc(-c4cccc(C(=O)NCCO)c4)sc3c(=O)n2C)c1 | 3978
Cc1cc(NC(=O)CSc2nnc3ccc(-c4ccccc4)nn23)no1 | 2975
C[C@@H]1CN([C@H](C)CO)C(=O)CCCn2nncc2CO[C@H]1CN(C)C(=O)Nc1ccc(N2CCCCC2)cc1 | 3508
Cc1ccc(-c2ccc3c(c2)O[C@H](CN(C)C(=O)CC2CC2)[C@H](C)CN([C@@H](C)CO)S3(=O)=O)cc1 | 3628
COc1ccc(C(C)=O)cc1Cn1c(C)c(C(=O)NCc2ccc3c(c2)OCO3)sc1=O | 4085
COc1ccc(C(C#N)=C2C=C(Cl)C(=NO)C=C2Cl)cc1 | 3686
CCOC(=O)C1=CCN(S(=O)(=O)c2ccc(F)cc2)C1c1cccc(Cl)c1 (configuration not stated) | 4261
OC[C@@H]1CN(Cc2cccs2)C[C@H](n2cnc3c(N4CCCC4)ncnc32)O1 | 3936
C[C@@H]1CN([C@H](C)CO)C(=O)c2cc(Br)cnc2O[C@H]1CN(C)C(=O)c1ccccc1 | 3628
C[C@H](CO)N1C[C@H](C)[C@@H](CN(C)S(=O)(=O)c2ccc(-n3cccn3)cc2)OCc2cn(nn2)CCCC1=O | 2927
COc1cccc(C(c2nnnn2C2CCCC2)N2CCN(C/C=C/c3ccccc3)CC2)c1OC (configuration not stated) | 5357
CCN1C(=O)c2cccc3c(S(=O)(=O)N(C)C)ccc1c23 | 3933
COCCNC(=O)C1(C)CCN(Cc2noc(-c3c(C)noc3C)n2)C1 (configuration not stated) | 3362
COc1ccc(C=C2CCC3C(=O)CCCC3(C)C2=O)cc1 (configuration not stated) | 3017
CCN(CC(=O)Nc1c(F)cccc1F)C(=O)c1ccc2c(c1)C(=O)N(c1ccccc1C)C2=O | 3801
CCC[C@H]1CN(Cc2ccccc2)C(=O)[C@@H]1CC(=O)NC | 3326
CNC[C@H]1Oc2cc(Br)ccc2S(=O)(=O)N([C@@H](C)CO)C[C@@H]1C | 4197
CC1(C(=O)NS(=O)(=O)c2ccc(C#N)cc2)CCN1C(=O)c1ccc(C2CCCCC2)cc1 (configuration not stated) | 3446
